# HPGD block: inhibitors of human 15-hydroxyprostaglandin dehydrogenase (HPGD). P15428. purified HPGD, NADH fluorescence kinetic, PGE2 substrate. Potency, µM, without a hit: at the highest dose activity change, negative = inhibition, most hits filed as inhibitors. 4.3% of 150,000 active; active = well fitted inhibition curve with a large enough effect (not every such curve was filed as active); inconclusive = small, poorly fitted or top-dose-only effect, or another doubt; inactive = no such curve, though single readings can be large or run the other way;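 note: top concentration of the series not given in the record; plate controls included wells without enzyme; inactives centre near -10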
# Target sequence (P15428 whole entry, looked up): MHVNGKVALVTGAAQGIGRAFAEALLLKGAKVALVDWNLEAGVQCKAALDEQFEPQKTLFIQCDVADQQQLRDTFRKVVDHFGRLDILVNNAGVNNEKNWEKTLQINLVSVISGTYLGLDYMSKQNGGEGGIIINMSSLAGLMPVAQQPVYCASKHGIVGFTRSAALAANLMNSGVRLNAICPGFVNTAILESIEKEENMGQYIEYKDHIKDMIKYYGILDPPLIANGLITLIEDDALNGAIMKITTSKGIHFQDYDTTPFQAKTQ
#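 20 nM HPGD preincubated 15 min at room temperature with compound in 50 mM Tris-HCl pH 8, 0.01% Tween 20. Started with 1 mM NAD+ and 30 uM prostaglandin E2; NADH fluorescence (360/450 nm) read 5 times over 30-s intervals, last minus first.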
# The depositor's hits bear a star; ? = inconclusive; & = joins results of further samples. % is set by controls: 0 for no effect and ±100 for the full control effect; potency is the fitted concentration of half-maximal effect.
SMILES,HPGD block
Cn1c(C(=O)N2CCCC(C(=O)NCc3cccs3)C2)cc2sccc21 (stereo not drawn),-25.4%
CC1(O)c2ccccc2C(=O)N1CCc1ccccc1F (stereo not drawn),-13.5%
CC(C)(C)OC(=O)NCCc1nnc(SCC(=O)Nc2cccc(Cl)c2)o1,2.5%
CCOC(=O)/C(=C/Nc1ccccc1)[N+](=O)[O-],-5.6%
COc1cc(/C=N/n2c(C)n[nH]c2=S)ccc1OCc1ccc(F)cc1,2.82µM*
CCn1c(SCC(=O)Nc2ccc(N(C)C)cc2)nnc1-c1cccc(C)c1,-10.6%
Cc1cccc(C)c1OCc1nnc(SCC(=O)Nc2nccs2)o1,-10.7%
C=CCOc1cccc(C2C(C(=O)c3ccc(C)o3)=C(O)C(=O)N2Cc2ccncc2)c1 (stereo not drawn),-24.7%
COC(=O)[C@@H]1C[C@@]2(O)[C@H](O)[C@H](O)[C@H](O)C[C@H]2N1Cc1cc(F)ccc1F,2.2%
Cc1cc(C)c(NC(=S)N2CCCC2C(=O)O)c(C)c1 (stereo not drawn),?
CNC(=S)NNC(=O)c1sccc1OCc1cccc(C(F)(F)F)c1,-21.2%
CCn1cc(C(=O)O)c(=O)c2cnc(N3CCCC3)nc21,-1.6%&-2.9%
COc1ccccc1C1CC(c2ccccc2)Nc2ncnn21 (stereo not drawn),-13.6%
O=C(NCc1ccco1)C1CCCN1C(=O)NCc1ccccc1 (stereo not drawn),-9.1%
COc1ccc(C(C)=O)cc1CSc1nnc(-c2ccccc2O)n1-c1ccccc1,?
Cc1cc2c(C)nc3ccccc3c2o1,1.9%
CC(C)NCC(O)c1ccc2ccccc2c1 (stereo not drawn),-10.7%
CCCNC(=O)/C=C/c1ccc(C(C)C)cc1,-20.5%
CC(C)CC(=O)N/C(N)=N/c1nc2ccccc2s1,-8.6%
CCCOC(=O)c1cc2ccccc2oc1=O,-25.8%
c1ccc(-c2n[nH]c(-c3ccccn3)n2)nc1,-17.9%
COc1cc(/C=C2/CCc3ccccc3C2=O)cc(OC)c1OC,-14.4%
COc1ccccc1CN1CCCC2(CCNCC2)C1,-10.3%
COc1cc2c(cc1NC(=O)C(C)Sc1nc3ccccc3n1C)oc1ccccc12 (stereo not drawn),-35.0%
COC(=O)C1=C(C(=O)OC)[C@@H]2N(C)c3ccccc3[C@@]23C[C@@H](C(=O)OC)N(S(=O)(=O)c2ccc(Br)cc2)C3=N1,0.8%
Cc1ccccc1-n1nnc2c(=O)oc3ccccc3c21,-10.7%
O=C(O)CSc1cc(C(F)(F)F)nc(-c2ccccn2)n1,-5.5%
CNC(=O)c1ccc(Oc2ccc(C(=O)NC)cc2)cc1,2.51µM*
O=C(c1cc(-c2ccco2)nn1-c1cccc(Cl)c1)N1CCCCC1,1.58µM*
N#Cc1cc2c(nc1SCC(N)=O)CCCCC2,-14.1%

# A different layout for part of the listing above.
Compound | HPGD block
c1ccc(-c2n[nH]c(-c3ccccn3)n2)nc1 | -17.9%
COc1cc(/C=C2/CCc3ccccc3C2=O)cc(OC)c1OC | -14.4%

# Some of these compounds in order of molar mass, ascending:
SMILES,HPGD block
c1ccc(-c2n[nH]c(-c3ccccn3)n2)nc1,-17.9%
N#Cc1cc2c(nc1SCC(N)=O)CCCCC2,-14.1%
COc1ccccc1CN1CCCC2(CCNCC2)C1,-10.3%
Cc1ccccc1-n1nnc2c(=O)oc3ccccc3c21,-10.7%
CNC(=O)c1ccc(Oc2ccc(C(=O)NC)cc2)cc1,2.51µM*
O=C(O)CSc1cc(C(F)(F)F)nc(-c2ccccn2)n1,-5.5%
COC(=O)C1=C(C(=O)OC)[C@@H]2N(C)c3ccccc3[C@@]23C[C@@H](C(=O)OC)N(S(=O)(=O)c2ccc(Br)cc2)C3=N1,0.8%

# (continued)
SMILES,HPGD block
Cc1c2cc[n+](CCN3CCCCC3)cc2c(C)c2c1[nH]c1ccc(O)cc12,-5.0%
Cc1ccc(CNC(=O)CCS(=O)(=O)c2ccc(Br)s2)cc1,-13.9%
COc1ccc(NC(=O)Cc2c(O)c3ccccc3[nH]c2=O)cc1,-17.5%
O=C(Nc1cccnc1)C1(c2ccc(Cl)cc2)CCCC1,-1.0%
CCCOc1ccc2c(=O)c(-c3cc(C(=O)OC)oc3C)c(C)oc2c1,-14.2%
COc1ccc(C(=O)/C(C#N)=N/Nc2ccccc2[N+](=O)[O-])cc1,-13.9%
O=C(c1n[nH]c(=O)c2ccccc12)N1CCOCC1,-6.2%
O=C(NCC1CCCCC1)C12CN(Cc3ccccc3)CC1C(c1cccc([N+](=O)[O-])c1)=NO2 (stereo not drawn),-11.2%
COc1ccc(C(C)=O)cc1COC(=O)c1c(C)noc1C,-20.7%
C/C(N)=C(/C#N)C(=O)CSc1nnc(Nc2cccc(C)c2)s1,-16.5%
CC1(C)CC(=O)c2cc(OCC(=O)N3CCCCCC3)ccc2O1,?
CC(=N\Nc1ccccc1)/C(=N/O)C(=O)Nc1ccccc1,-6.0%
COc1ccc(OC)c(NC(=S)NCCCN2CCOCC2)c1,-6.6%
O=C(COc1cccc2cccnc12)N/N=C1\SCC(=O)N1Cc1ccccc1,-9.4%
O=C(N/C(=C/c1cccnc1)C(=O)N1CCOCC1)c1ccco1,-6.9%
Cc1ccc(-n2ncc3c(SCc4cccc(C)c4)ncnc32)cc1,?
CS(=O)(=O)c1ccc(C(=O)NC2CCOC2=O)cc1 (stereo not drawn),2.0%
CCN(CC)C(=O)c1ccc(-c2ccccc2)cc1,0.631µM*
Cc1ccc(-n2c(Cc3cccn3C)nnc2SCC(=O)Nc2cc(C)on2)cc1,-14.7%
COc1ccc(-n2c(Cc3cccn3C)nnc2SCC(=O)Nc2cccc(Cl)c2)cc1,-7.4%
CC(C)/C=N/NC(=O)c1ccc(Cl)cc1,-10.9%
O=C(NCCN1C(=O)C2C3C=CC(C3)C2C1=O)Nc1cccnc1 (stereo not drawn),2.6%
C#CCOc1ccc(Cl)cc1/C=N/O,?
Cc1[nH]n(-c2ccccc2)c(=O)c1/C=N/N(C)c1ccccc1,-12.6%
Cc1ccc(NC(=O)c2ccccc2NC(=O)Cc2ccccc2)cc1,-1.1%
CCCCC/C=C\C/C=C\CCCCCCCC(=O)NCCCC(=O)O,-0.7%
c1ccc2c(-c3ccncc3)c[nH]c2c1,-17.5%
COc1cccc(CNc2nc(SC)ncc2CO)c1,-4.3%
COc1cccc(-n2c(SCc3c(C)noc3C)nnc2-c2cccc(S(=O)(=O)N(C)C)c2)c1,-10.9%
COc1cccc(C(=O)/C=C/c2ccc(SC)cc2)c1,-19.0%
Cc1ccc(-n2nc(C(=O)O)c3ccccc3c2=O)cc1C,-11.8%
C/C(=N\NC(=O)c1ccccc1)c1ccc(C)c([N+](=O)[O-])c1,-9.6%
CCOc1ccc(C(C)C)cc1S(=O)(=O)n1nc(C)cc1C,1.2%
Cc1ccc2sc(C)[n+](CCC(C)S(=O)(=O)[O-])c2c1 (stereo not drawn),-3.3%
CCC(C)NC(=O)C1CC(c2ccc(OC)cc2)=NO1 (stereo not drawn),-9.9%
CCN(CC)C(=O)C1CCCN(c2ccc([N+](=O)[O-])cc2/C=N/NC(=O)c2cccc([N+](=O)[O-])c2)C1 (stereo not drawn),-14.4%
O=C(COc1ccc(S(=O)(=O)N2CCCC2)cc1Cl)NC1CC1,-6.0%
COCCCn1c(SCC(=O)N2CC(=O)Nc3ccccc32)nnc1-c1ccoc1C,-12.0%
COc1cc(NC(=O)c2ccccc2)c(OC)cc1NC(=O)CN1CCOCC1,-15.4%
Cc1cc(=O)n2nc(N3CCC(C(=O)NC4CCCc5ccccc54)CC3)sc2n1 (stereo not drawn),-5.8%
O=c1c2c3c(sc2nc2n1CCCC2)CCCCC3,-22.3%
COc1cc(CNCCc2ccc(S(N)(=O)=O)cc2)ccc1OCC(=O)NC1CCCCC1,-20.6%
CCc1ccc(-n2c(O)cnc2Nc2nc(C)cc(C)n2)cc1,-8.8%
Cc1cc2cc3c(cc2nc1SCC(=O)Nc1c(C)cccc1C)CCC3,-2.4%
CS(=O)(=O)N(CC(=O)Nc1ccccc1)Cc1ccc(Cl)cc1,-14.1%
CCOC(=O)N1CCN(C(=O)Cc2ccsc2)CC1,2.4%
O=C(Nc1ccc(Cl)c([N+](=O)[O-])c1)c1ccc(NCCCN2CCOCC2)c([N+](=O)[O-])c1,-10.9%
CCOc1ccc(Nc2oc(-c3cccc(Cl)c3)nc2C#N)cc1,?
COc1ccc(S(=O)(=O)NCc2ccccn2)cc1,2.4%
CN(C)CCCN(C(=O)c1cc2ccccc2oc1=O)c1nc2ccc(F)cc2s1,-13.4%

# (more compounds)
SMILES,HPGD block
NC(=O)CSc1nnc(-c2ccc(S(=O)(=O)N3CCCC3)cc2)n1CC1CCCO1 (stereo not drawn),-20.4%
O=[N+]([O-])c1ccc(/C=N/n2cnc3ccccc32)s1,-7.3%
CCN(CC)C(=O)Cn1nc(-c2ccccc2O)nc1SCC(=O)Nc1ccc(OC)cc1,-17.0%
Nc1ccc(Sc2cnn(-c3ccccc3)c(=O)c2Cl)cc1,-9.4%
O=C(CSc1nc2c(cnn2-c2ccccc2)c(=O)[nH]1)N1N=C(c2cccs2)CC1c1ccc(F)cc1 (stereo not drawn),?
Cc1cccc(NC(=O)c2ccccc2O)c1C,-14.0%
CCCCN(C(=O)NC(=O)Nc1nc2ccc(OC)cc2s1)S(C)(=O)=O,?
COCCN(C(=S)Nc1cc(C)cc(C)c1)C(C)c1cccnc1 (stereo not drawn),-18.7%
CCCCCCCOc1ccc(-c2ccc(C#N)cn2)cc1,?
O=C1CC(Nc2ccccc2)C(=O)N1c1ccc(N2CCOCC2)cc1 (stereo not drawn),-14.0%
Cc1ccc(CCNC(=O)C2CCN(S(=O)(=O)c3cccc4nsnc34)CC2)cc1,-5.5%
Cc1[nH]c(=O)[nH]c(=O)c1S(=O)(=O)N1CCCC1,-16.8%
COc1ccc(-c2nnc(-c3cccnc3)o2)cc1,?
COc1ccc(-c2nc3c(n2O)CCCC3=O)cc1OC,?
CCOC(=O)c1c(C)n(C)c2ccc(OC)c(NC(=O)CCN3CCSCC3)c12,-5.5%
CS(=O)c1nc(-c2ccc(Br)cc2)cc(-c2ccccc2)c1C#N (stereo not drawn),7.3%
CC(C)CN(CC(C)C)C(=O)Cc1coc2ccc3ccccc3c12,?
CCc1c(C)nc(SCC(=O)c2ccc(C)c(C)c2)[nH]c1=O,-23.9%
CN(CCc1ccccn1)S(=O)(=O)c1ccc(F)cc1,-7.9%
COC(=O)c1cc2ccccc2c(-c2c(O)ccc3ccccc23)c1O,-7.4%
Brc1ccc(Oc2ncc(CN3CCOCC3)s2)cc1,-16.2%
Nc1nc2nc(SCC(=O)N3CCCc4ccccc43)[nH]c2c(=O)[nH]1,-6.0%
Cc1nn(-c2ccccc2)c(N)c1C(O)(CC(=O)C(F)(F)F)C(F)(F)F (stereo not drawn),-6.4%
CN1C(=O)CSc2ccc(NC(=O)Nc3ccccn3)cc21,7.4%
COC(=O)C1C2C=CC3(CN(Cc4cccs4)C(=O)C13)O2 (stereo not drawn),-8.0%
COc1ccc(-n2cnnc2SCCC#N)cc1,-7.5%
Cc1cc2cc(CN(Cc3ccco3)C(=O)C3CCCCC3)c(=O)[nH]c2cc1C,-21.3%
COCCn1c(SCC(=O)/C=C2\N(C)c3ccccc3C2(C)C)nnc1-c1ccncc1,-8.3%
CCOc1ccc(S(=O)(=O)Nc2ccc(S(=O)(=O)N3CCCCC3)cc2)cc1,-4.5%
Cc1ccccc1NC(=O)Cc1c(O)c2ccccc2[nH]c1=O,?
CCc1ccc(N(C(=O)Cc2cccs2)C(C(=O)NC2CCCCC2)c2cn(C)nc2C)cc1 (stereo not drawn),-13.2%
CCOC(=O)CCC(=O)O[C@H]1[C@H](O[C@@H]2[C@@H](C)[C@H](O[C@H]3C[C@@](C)(OC)[C@@H](O)[C@H](C)O3)[C@@H](C)C(=O)O[C@H](CC)[C@@](C)(O)[C@H](O)[C@@H](C)C(=O)[C@H](C)C[C@@]2(C)O)O[C@H](C)C[C@@H]1N(C)C,-3.3%
S=C(NCc1ccc(Cl)cc1Cl)Nc1ccccc1,-23.3%
COC(=O)[C@H](CCSC)NC(=O)N1CCN(Cc2ccccc2)CC1,2.0%
Fc1ccc2c(c1)C(c1ccncc1)=NNC(c1cccnc1)=N2,-20.5%
COCC(=O)Nc1ccc(S(=O)(=O)NCCc2ccccc2)cc1,-7.8%
O=C(CCn1cccc1)Nc1nccs1,-5.3%
CNC(=O)c1c[nH]n2c(=O)c(Cc3ccccc3F)c(C)nc12,-21.8%
COc1ccc(Oc2ncc3nc(C)c(=O)n(CCC#N)c3n2)cc1,-20.9%
Cc1ccc(-c2nc(SCC(=O)NCC3CCCO3)c(-c3ccc(Cl)cc3)[nH]2)cc1 (stereo not drawn),-8.1%
COc1ccc(C(=O)CSc2nnc(C3CCCCC3)n2N)c(OC)c1,-7.4%
COc1ccccc1S(=O)(=O)Nc1ccc2cn[nH]c2c1,3.9%
Cn1c(=O)c2c(nc(SCC(=O)NCc3ccc4c(c3)OCO4)n2Cc2ccccc2)n(C)c1=O,-3.4%
O=C(CN1CCN(S(=O)(=O)c2ccc(F)cc2)CC1)Nc1ccc(Cl)c(C(F)(F)F)c1,-15.2%
O=C(N/N=C/c1c(Nc2cccc(C(F)(F)F)c2)nc2ccccn2c1=O)c1ccccc1[N+](=O)[O-],-15.0%
CCN(CC)C(=O)COc1cc(C)cc2oc(=O)cc(-c3ccccc3)c12,?
O=C(CN(Cc1ccccc1)S(=O)(=O)c1ccc(S(=O)(=O)N2CCOCC2)cc1)Nc1ccccc1,1.2%
O=C(NCCc1ccccc1)NC1CCCCC1,-7.5%
Cc1cc(C)cc(NC(=O)CSc2nc(N)c(NC(=O)c3cccs3)c(=O)[nH]2)c1,-7.6%
Cc1ccc(-n2c(SCC(=O)NCC3CCCO3)nnc2-c2ccoc2C)cc1 (stereo not drawn),-6.2%

# These rows are one share of the data; count on the stated rates, not on these rows.
